# FGF22 binding: shifts melting point of recombinant human FGF22 | Q9HCT0 | recombinant FGF22 thermal shift, SYPRO orange fluorescence; percent of sucrose octasulfate shift, DMSO zero | calls only at 9.99 µM | actives 1.5% (n = 340,000) | AID 651658;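 active = melting point raised past a set limit in the mean and every replicate; inconclusive = no clear call; three in four hits are not shown here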
# Target sequence (Q9HCT0 whole entry, looked up): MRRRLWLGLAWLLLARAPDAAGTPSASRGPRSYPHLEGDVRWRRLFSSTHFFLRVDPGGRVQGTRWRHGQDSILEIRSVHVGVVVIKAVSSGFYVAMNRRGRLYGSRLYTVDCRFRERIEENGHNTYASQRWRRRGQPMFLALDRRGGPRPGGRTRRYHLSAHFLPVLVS
# T cruzi repl: T. cruzi replication inhibition | T. cruzi beta-gal in NIH3T3, luminescence, 90 h | inhibition, % (no concentration beside the values) | actives 1.4% (n = 300,000) | AID 1885;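 active = mean inhibition across valid replicates above about 55%, limit read from the data; inconclusive = mean below that limit but half or more replicates reach it; inactive = mean below it, under half of replicates reach it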;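 note: signal also drops with host cell toxicity which is not excluded here; 0% = plate median of DMSO wells and 100% = zero luminescence signal; higher percent means less beta-gal luminescence so fewer parasites; stock transfer was 50 nL into about 50 µL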
# ALR H2O2 inh: human ALR oxidase inhibition via reduced H2O2 | inhibition, % (concentration not given with the values) | purified ALR, DTT oxidation, H2O2 HRP-luminol luminescence | AID 485317 | actives 3.8% (n = 290,000) | P55789;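 active = mean and each replicate at 75% or more; inconclusive = only one of the two met; inactive = neither met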;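 note: stock transfer was 7.5 nL into about 7.5 µL; 0% = neutral wells and 100% = wells with inactivated enzyme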
# Target sequence (P55789 whole entry, looked up): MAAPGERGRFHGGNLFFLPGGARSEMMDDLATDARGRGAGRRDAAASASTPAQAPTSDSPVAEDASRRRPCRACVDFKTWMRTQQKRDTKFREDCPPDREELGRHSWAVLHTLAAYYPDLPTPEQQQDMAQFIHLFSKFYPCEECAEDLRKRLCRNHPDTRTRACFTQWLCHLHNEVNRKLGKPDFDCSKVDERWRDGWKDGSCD
# MLL AF4-AF9 inh: MLL-AF4/AF9 protein interaction inhibition | AlphaScreen, biotin-AF4 peptide binding to FLAG-AF9 | actives 0.47% (n = 350,000) | AID 651704 | inhibition, % at 10 µM;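 active = every replicate reaching a set inhibition limit, whatever the replicate mean, cut at about 25% in these data; inconclusive = mean inhibition reaches that limit but some replicates miss it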;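 note: 0% = plate neutral control median and 100% = total signal loss; the record names both 10 and 1 µM as test concentration; the first replicate is given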
# Target sequence (P42568 whole entry, looked up): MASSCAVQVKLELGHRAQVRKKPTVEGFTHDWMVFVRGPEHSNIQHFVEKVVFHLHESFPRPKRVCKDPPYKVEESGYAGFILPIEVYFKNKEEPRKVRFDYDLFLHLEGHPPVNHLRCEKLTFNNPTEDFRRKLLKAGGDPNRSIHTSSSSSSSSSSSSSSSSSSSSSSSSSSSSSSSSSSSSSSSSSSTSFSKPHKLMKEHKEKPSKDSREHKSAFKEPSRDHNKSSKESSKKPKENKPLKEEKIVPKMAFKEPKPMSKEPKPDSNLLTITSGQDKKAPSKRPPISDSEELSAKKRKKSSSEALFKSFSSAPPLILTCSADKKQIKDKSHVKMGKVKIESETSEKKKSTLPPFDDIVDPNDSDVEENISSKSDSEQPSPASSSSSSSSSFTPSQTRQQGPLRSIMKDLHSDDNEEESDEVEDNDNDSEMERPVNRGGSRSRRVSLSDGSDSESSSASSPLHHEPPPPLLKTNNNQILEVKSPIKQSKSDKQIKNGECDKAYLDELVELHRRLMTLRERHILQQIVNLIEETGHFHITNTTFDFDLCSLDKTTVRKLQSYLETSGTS
# Beta apoptosis: blocks beta cell apoptosis; INS-1E cytokine-induced death, ATP luminescence, 48 h; percent of positive-control rescue, neutral wells zero; protection from apoptosis, % (concentration not given with the values); actives 0.8% (n = 300,000);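 active = all replicates at 75% or more, or half of them and the mean; inconclusive = half reach 75% but not the mean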;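 note: 0% = cytokine-treated negative control wells and 100% = positive control rescue; higher means more ATP so stronger rescue from cytokine killing; wells of about 40 µL received 100 nL stock; the first replicate is given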
# RanGTP-Impb inh: disruptors of Ran-importin-beta complex formation – biochemical, FRET, CFP-Ran, YFP-importin-beta, homogeneous, primary screen | inhibition, % (test concentration not listed) | cell-free CFP-Ran/YFP-importin-beta FRET ratio | actives 1.1% (n = 300,000) | AID 2216;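 active = most replicates above 15%; inconclusive = exactly half above 15%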;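 note: 0% = DMSO wells and 100% = Ran loaded with GDP instead of GTP; wells of about 40 µL received 100 nL stock; the first replicate is given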
# Calb FLC: C. albicans growth modulation with fluconazole; C. albicans CaCi-2 (fluconazole-resistant clinical isolate) + fluconazole, Alamar Blue growth, 48 h; growth inhibition, % (concentration not given with the values); actives 0.57% (n = 300,000);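 active = most replicates above 75%; inconclusive = exactly half above 75%; inactive = most below 75%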;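 note: all wells also contain fluconazole at 8 µg/ml as a sub-toxic cotreatment; 0% = median of DMSO wells and 100% = median of geldanamycin control wells; wells of about 8 µL received 7.5 nL stock; the first replicate is given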
# Ecoli rRNA inh: inhibits bacterial ribosomal RNA function over humanized ribosomes. GFP signal change (wild-type ribosome), % (concentration not given with the values). E. coli WT GFP vs humanized-ribosome RFP mutants, fluorescence, 24 h; hits give low values; DMSO median 0, no signal -100. actives 1.6% (n = 350,000);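 active = significant combined selectivity score with lowered wild-type GFP, culture density cut under 30%, mutant RFP and density less affected; inactive = any of these conditions unmet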; note: one replicate is shown; some compounds called inactive have numbers as strong as hits
# Ecoli rRNA inh OD600: recorded beside Ecoli rRNA inh, whose call it bears; OD600 change, %; measured here: OD600 growth;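 optical density of the mix in the first replicate; 0 = DMSO median and -100 = no signal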
# Ecoli rRNA inh RFP: further read-out of Ecoli rRNA inh, marked with its call; RFP signal change, %; measured here: RFP humanized mutant strains;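 first replicate; 0 = DMSO median and -100 = no signal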
# An asterisk follows results filed as active; i = inactive; ? = inconclusive; . = no result given.
item	SMILES	FGF22 binding	T cruzi repl	ALR H2O2 inh	MLL AF4-AF9 inh	Beta apoptosis	RanGTP-Impb inh	Calb FLC	Ecoli rRNA inh	Ecoli rRNA inh OD600	Ecoli rRNA inh RFP
1	COCCC(=O)N1CCC(Oc2ccc(C(=O)NCc3ncc(C)[nH]3)cc2)CC1	i	-2	-2	1.8	-7	-2.4	-4	4	13	1.8
2	COCC(=O)N(Cc1cc2ccc(C)c(C)c2n2nnnc12)C1CCCC1	i	-13	.	-10	-3	-2.3	16	7	8	-5.3
3	COc1ccc(C(C#N)Nc2ccccc2OC)cc1 (centres undefined)	.	12	.	.	-4	2.0	-3	.	.	.
4	Cc1cc(SCC(=O)NN)c2cc(Br)ccc2n1	.	19	.	-0.4	9	1.0	-1	-7	0	0.7
5	COc1ccc(-c2csc3nc[nH]c(=O)c23)cc1	i	-10	-4	-4.8	-4	0.0	1	-8	-9	-9.0
6	CCc1nc(SCC(=O)N2CCCCCC2)c2c(=O)n(C)c(=O)n(C)c2n1	i	21	-10	-0.3	.	1.7	-5	-21	-23	-3.4
7	CC(C)CCNC(=O)CCn1c(=S)oc2ccccc21	.	0	-5	.	3	-0.6	8	.	.	.
8	CC(C)OC(=O)C1C(=O)CC(C)(O)C(C(=O)OC(C)C)C1c1cccc(O)c1 (centres undefined)	.	-8	0	0.8	-2	-0.2	50	.	.	.
9	NC(=O)c1cc2cc(Cl)ccc2o/c1=N/NC(=O)c1cccs1	i	-8	1	-0.6	1	-0.9	1	12	4	-7.3
10	CN(C)S(=O)(=O)c1ccc(NC(=O)CSc2ncnc3ccccc23)cc1	.	0	.	.	-3	3.8	-2	.	.	.
11	CCCCCn1c(=O)c2ccccc2n2c(CCl)nnc12	i	-31	6	1.9	0	7.9	-5	6	-2	1.2
12	CCOc1ccc(NC(=O)c2ccc(N3CC4CC(C3)c3cccc(=O)n3C4)c(NC(=O)CCN3CCOCC3)c2)cc1 (centres undefined)	i	8	-3	1.3	-4	-3.5	1	-1	2	-0.2
13	O=C(Nc1cccc2ccccc12)C12CC3CC(C1)CC(n1cnc([N+](=O)[O-])n1)(C3)C2	.	44	-18	.	.	5.2	1	.	.	.
14	C[C@]12C=CC(=O)C=C1CC[C@@H]1C2C(O)C[C@@]2(C)C1CC[C@]2(O)C(=O)COC(=O)CCC(=O)NC(CC(=O)O)C(=O)O (some centres undefined)	i	7	-15	0.3	-20	-1.7	-3	-4	7	-1.9
15	O=C(Nc1ccc(F)c(F)c1)c1ccccc1	i	.	-1	1.7	8	.	.	2	-3	-9.7
16	O=C(O)Cc1ccc(NS(=O)(=O)c2ccccc2Br)cc1	i	-10	-6	-1.4	-4	4.5	1	6	7	8.6
17	Cc1cc([N+](=O)[O-])ccc1NC(=O)CSc1nncn1-c1ccccn1	i	-7	-15	-0.4	-4	-0.9	9	7	15	-1.0
18	Cc1cc2c(NC(=O)CC(C)(C)CC(=O)O)cccc2nn1	i	-4	.	0.8	-5	?	0	24	9	1.5
19	O=C(COC(=O)c1ccccn1)Nc1ncc(C(F)(F)F)cc1Cl	.	-25	-1	.	-3	4.7	5	.	.	.
20	CCOc1ccc(-n2c(O)c(/C=N/Nc3nnc(C)c(=O)[nH]3)c3ccccc3c2=O)cc1	i	-6	63	14	9	-2.9	?	-2	-7	-1.1
21	O=C(O)CSc1nnc(COc2ccccc2)n1-c1ccccc1	i	1	1	0.1	0	-3.6	-7	14	9	1.3
22	CCCCn1c(NCCN(C)C)nc2c1c(=O)[nH]c(=O)n2C	.	11	22	.	2	-1.1	4	.	.	.
23	Nc1nc(N)nc(-c2ccc(Oc3ccccc3)cc2)n1	i	4	.	2.5	-11	4.5	-9	-34*	-26*	-4.9*
24	Cc1onc(-c2ccccc2)c1C(O)c1ccc(F)cc1 (centres undefined)	i	-4	-4	-4.6	-5	2.6	-18	-3	-2	-0.6
25	Cc1nn(C)c(C)c1CCC(=O)O	i	-20	1	-0.5	.	4.3	-5	29	19	0.6
26	COc1ccccc1CCC(=O)OCC(=O)NC1CCCC1	i	-14	4	-30	-2	?	.	0	4	0.9
27	COc1ccccc1C(=O)NC(=O)COC(=O)CCOc1cc(C)ccc1C	i	-5	1	-2.3	-6	-0.1	4	-4	1	7.5
28	O=C(NCCc1cnc[nH]1)c1cccs1	i	31	-29	2.4	-1	6.1	-40	-8	7	-0.3
29	CC1CCC2(CC1)NC(=O)N(CC(=O)N1CCN(C(=O)c3ccco3)CC1)C2=O (centres undefined)	i	.	12	0.6	1	.	.	.	.	.
30	C/C(Cn1nnc([N+](=O)[O-])n1)=N\NC(=O)c1ccc(O)cc1	i	37	.	-2.8	15	-1.4	14	-4	1	-2.6
31	COc1ccc(-c2cc(C(=O)Nc3cc(C)on3)no2)cc1OC	i	-10	4	-4.4	-12	?	0	-30	-39	-14
32	CS(=O)(=O)N1CCC(C(=O)NCc2ccncc2)CC1	.	-29	-33	.	-8	3.9	-8	.	.	.
33	CC(C)Nc1c(N)c(=O)oc2ccccc12	.	-3	92*	.	.	?	-10	.	.	.
34	Cc1ccc(-c2nn3c(C)nnc3c3ccccc23)cc1S(=O)(=O)NCc1ccccc1	.	38	-12	.	12	-2.7	-4	.	.	.
35	CC(C)c1ccc(NC(=O)CNC(=O)Cn2ccc3ccccc3c2=O)cc1	i	3	7	-2.8	4	5.6	17	5	12	-0.6
36	Cc1nn(-c2ccc(NC(=O)c3ccncc3)cc2)c(C)c1Cl	i	-9	-3	-9.0	.	-0.8	-2	-5	-4	3.0
37	COc1ccccc1CC(=O)Nc1cccc(S(=O)(=O)N2CCOCC2)c1	i	2	1	-0.8	0	2.0	-1	8	5	3.3
38	O=C(NC1CCCCC1)N1CCN(c2ccc([N+](=O)[O-])cc2)CC1	i	20	18	-6.6	5	0.3	3	-10	-9	-2.5
39	C=C1C(=O)C=C2CN(C(=O)c3ccccc3)[C@@](Cc3ccc(F)cc3)(C(=O)OC)[C@@H]12	.	50	46	.	113*	-1.9	-1	.	.	.
40	CC1CCN(CCCNC(=O)C2CC(=O)N(C3CCCCCC3)C2)CC1 (centres undefined)	.	-2	7	.	-1	-2.2	1	.	.	.
41	COc1ccc(CC2S/C(=N/N=C/c3ccccc3O)NC2=O)cc1 (centres undefined)	i	15	.	?	57	-1.0	-13	4	7	-4.5
42	CCCCc1c(C)c(C#N)c2nc3ccccc3n2c1Nc1c(C)n(C)n(-c2ccccc2)c1=O	.	17	-14	.	21	21*	29	.	.	.
43	COc1ccccc1/C=C/C=N/NC(=O)CN1CCN(S(=O)(=O)c2ccc(C)cc2)CC1	.	0	-17	.	-1	2.7	0	.	.	.
44	COc1cc(OC)c(N2CC34C=CC(O3)C(C(=O)O)C4C2=O)cc1Cl (centres undefined)	.	-3	-9	.	-2	4.9	-21	.	.	.
45	O=[N+]([O-])c1ccccc1S(=O)(=O)N1CCCc2ccccc21	i	-32	-12	6.7	-5	3.2	4	-2	-5	-0.1
46	Cc1ccsc1C(=O)NCc1ccc(Cl)cc1	i	6	3	1.3	.	1.4	-2	-6	3	1.8
47	O=[N+]([O-])c1cc(S(=O)(=O)O)cc([N+](=O)[O-])c1NN(c1ccccc1)c1ccccc1	i	5	99*	1.0	-6	0.5	-3	-1	3	2.6
48	CCN1CCN(C(=O)/C(=C/c2ccco2)NC(=O)c2ccccc2)CC1	i	-7	7	0.1	-14	1.4	-2	4	2	1.6
49	CCOc1ccc2oc(C(=O)NCc3nc4ccccc4[nH]3)c(C)c2c1	i	5	8	-14	1	4.9	8	-1	-8	-3.5
50	COc1ccc(-c2cc(C(F)(F)F)nc(S(=O)(=O)CCCC(=O)Nc3cc(C)on3)n2)cc1OC	i	48	.	-1.4	.	1.6	23	-5	1	-1.0
51	Cc1ccc2c(CC(=O)NCc3ccc4c(c3)OCO4)coc2c1	.	-6	-9	.	-7	1.4	-9	.	.	.
52	O=C(Nc1ccc(S(=O)(=O)NCC2CCCO2)cc1)c1ccc(Cl)cc1[N+](=O)[O-] (centres undefined)	i	-13	-18	0.3	-4	?	-8	-21	-30	-4.2
53	Nc1ncc(CCN2CCOCC2)c(-c2ccc(F)cc2)n1	i	-15	-7	-0.1	-5	1.8	-1	5	7	-1.3
54	CCOC(=O)C1=CN2CCCC[C@@H]2CC1=O	i	.	-2	-1.5	4	.	.	7	-8	2.6
55	COc1ccc(NC(=O)CN2c3cccc4cccc(c34)S2(=O)=O)c(OC)c1	.	19	-20	.	-2	-1.9	9	.	.	.
56	O=C(O)c1ccccc1OC(C(=O)Nc1cc(Cl)cc(Cl)c1)c1ccccc1 (centres undefined)	i	21	-2	-0.5	17	-1.0	-5	4	5	-0.4
57	COc1ccc(/C=C2\CCC(C3CCCC3)C2=O)cc1OC (centres undefined)	i	3	-5	-4.0	0	-1.4	-8	7	12	10
58	NC(=O)COC(=O)c1ccc(S(=O)(=O)NCc2ccco2)cc1	i	-21	-12	-1.3	.	4.1	-6	19	16	2.7
59	COc1ccc(N(CC(=O)NC2CCCCC2)C(=O)CCC(=O)Nc2nc(C)cs2)cc1	i	8	.	-11	-3	2.3	-10	6	12	-1.1
60	Cc1ccc(/C=C(/C#N)C(=O)NC(=O)Oc2ccccc2)cc1	i	-23	.	-0.5	1	-3.6	-1	3	0	0.0

# (next part)
item	SMILES	FGF22 binding	T cruzi repl	ALR H2O2 inh	MLL AF4-AF9 inh	Beta apoptosis	RanGTP-Impb inh	Calb FLC	Ecoli rRNA inh	Ecoli rRNA inh OD600	Ecoli rRNA inh RFP
61	Nc1nc(SCC(=O)Nc2ccc(F)cc2)[nH]c(=O)c1NC(=O)c1ccc(F)c(F)c1	i	8	3	0.4	-7	-3.0	-7	6	15	-0.6
62	O=C(Cn1ccn(-c2ccc(F)c(Cl)c2)c(=O)c1=O)NCCc1ccccc1	.	-9	-15	.	.	5.3	-1	.	.	.
63	O=C(CSc1nc2ccccc2s1)NNC(=S)Nc1ccccc1	i	-11	11	-68	-5	0.0	22	-23	-23	2.8
64	CC1CC(C)CN(c2ccc(C(=O)NCc3ccc4c(c3)OCO4)cc2[N+](=O)[O-])C1 (centres undefined)	i	65*	.	-1.2	-5	?	-8	-7	-13	-0.5
65	COc1cc(CCC(=O)OCC(=O)Nc2c(Cl)cccc2Cl)cc(OC)c1OC	i	-9	0	1.9	-3	3.9	14	6	-6	-1.6
66	Cc1sc(NC(=O)C2=COCCO2)c(C(N)=O)c1C	i	-10	.	0.0	-5	0.9	-10	-4	0	-3.1
67	Cc1c(N2C(=O)/C(=C3\C(=O)N(CC(=O)O)c4ccccc43)SC2=S)c(=O)n(-c2ccccc2)n1C	i	-13	26	9.3	-9	-1.1	2	14	4	-6.4
68	Cc1cc(C)c(C(=O)Nn2c(C)nc3ccccc3c2=O)cc1C	i	1	-4	0.1	-3	-0.7	2	-3	-14	0.6
69	C(=N\Nc1nc(-c2ccccc2)cs1)/c1ccco1	.	2	-17	.	-4	0.0	-74	.	.	.

# An excerpt; rates above refer to the full screens.
